Source: PubChem (National Center for Advancing Translational Sciences (NCATS))
TRPML1 agonist: human mucolipin-1 channel agonism; Q9GZU1; TRPML1-expressing cells, Ca2+ dye fluorescence, FDSS; host cell line not named in the record; reference of the full effect not given here; activation, % (no concentration beside the values); hit rate 0.12% among 410,000; in the data active = activation above about 50%; inconclusive = about 30% to 50%; inactive = below about 30%; also: 0% is about no effect; the text of the record puts the active cut at 80%
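Kinetic FDSS Ca2+ read in Tet-induced TRPML1-DL cells (ABD Ca8 dye plus quencher, 45-90 min RT loading): baseline, then compound, then 110 s agonist window; EC80 agonist 54-4 at 4uM final added afterwards for a 110 s antagonist window.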
TRPML1 blocker: human mucolipin-1 channel inhibition. TRPML1-inducible cells, Ca2+ dye fluorescence, FDSS; active compounds read low; inhibition of EC80 agonist-evoked calcium signal. activity change, negative = inhibition, % (concentration not given with the values). hit rate 0.02% among 390,000. AID 624415; in the data active means activity change below about -50%; inconclusive means about -30% to -50%; inactive means above about -30%;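 also: stimulus is agonist 54-4 at its EC80 concentration; % is scaled to controls: 0 for no effect and ±100 for the full control effect; the text of the record puts the active cut at -80%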
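Calcium fluorescence in TRPML1-DL cells induced overnight with Tet: a 110 s read after compound pin addition, then a 110 s antagonist read after challenge with 54-4 at 4 uM final (EC80).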
Menin MLL FP FL: displaces fluorescein MLL peptide from human menin. Fluorescence polarization, fluorescein-MLL peptide displacement from menin. FP activity change, % at 61.4 µM. 290,000 tested, under 10 active; inconclusive = falling polarisation curve, or a change in total fluorescence; inactive = total fluorescence flat and polarisation flat or rising; no compound was filed as active; the % refers to the polarisation; negative = inhibition;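 also: % of control where 0% means no effect; inhibitors lower the polarisation; unlabelled MLL peptide was the positive control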
PINK1 modulator: modulators of PINK1 expression. PINK1 immunofluorescence, high-content cytometry, 24 h. Potency, µM (top dose mostly 76.6 µM), for the others: at the top dose activation (PINK1 increase), most hits filed as activators. hit rate 0.2% among 410,000. AID 624263; active = well fitted activation curve with a large enough effect; inconclusive = small, poorly fitted or top-dose-only effect; inactive = flat fitted curve, though single readings scatter; cell line not stated here;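 also: potency is read from the fitted curve at half-maximal effect; % of control where 0% means no effect; nearly all actives have a fitted effect of over 65% in size; a mitochondrial uncoupler was the plate control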
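Stable cell line, 250 cells/well, 12 h attachment; compounds pinned at 5 concentrations, 24 h; CCCP control. Fixed with nuclear dye, primary antibodies 12 h at 10 degrees C, secondary plus cell stain; laser-scanning cytometer read.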
TRPV1 PAM: potentiators of human vanilloid receptor 1 (TRPV1); Q8NER1; hit rate 0.02% among 320,000; TRPV1-expressing cells, Fluo-8 calcium influx, capsaicin EC20 potentiation; host cell line not named in the record; control for the full effect not named in the record; potentiation, % at 8.33 µM; AID 540277; active means potentiation above 80%; inconclusive means 30% to 80%; inactive means below 30%; also: 0% is about no effect
Target sequence (Q8NER1 whole entry, looked up): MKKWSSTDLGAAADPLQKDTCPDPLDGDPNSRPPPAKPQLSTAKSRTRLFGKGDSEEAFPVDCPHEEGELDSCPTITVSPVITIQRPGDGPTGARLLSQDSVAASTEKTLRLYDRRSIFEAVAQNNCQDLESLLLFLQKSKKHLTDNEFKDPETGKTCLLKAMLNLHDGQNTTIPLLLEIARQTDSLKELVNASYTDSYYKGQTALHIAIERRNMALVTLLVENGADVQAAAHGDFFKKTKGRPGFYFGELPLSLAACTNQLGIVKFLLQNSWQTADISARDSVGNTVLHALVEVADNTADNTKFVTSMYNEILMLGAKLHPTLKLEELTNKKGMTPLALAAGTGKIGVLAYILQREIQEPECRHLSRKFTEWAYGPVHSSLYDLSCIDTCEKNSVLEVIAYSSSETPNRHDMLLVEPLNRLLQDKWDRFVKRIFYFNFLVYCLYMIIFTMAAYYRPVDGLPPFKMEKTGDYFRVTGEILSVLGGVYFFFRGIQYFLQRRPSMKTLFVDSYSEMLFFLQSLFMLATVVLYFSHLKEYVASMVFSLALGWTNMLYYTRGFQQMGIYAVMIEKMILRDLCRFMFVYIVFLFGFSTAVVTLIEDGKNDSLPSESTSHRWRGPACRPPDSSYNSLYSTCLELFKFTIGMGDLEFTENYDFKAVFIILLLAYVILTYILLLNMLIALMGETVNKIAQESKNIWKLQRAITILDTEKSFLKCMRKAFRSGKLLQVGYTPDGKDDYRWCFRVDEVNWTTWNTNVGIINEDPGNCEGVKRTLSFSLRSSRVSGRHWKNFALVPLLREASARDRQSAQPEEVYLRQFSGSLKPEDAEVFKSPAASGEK
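TRPV1-expressing cells were cultured overnight at 35.5C and loaded with Fluo-8 calcium dye for 40 to 90 min at room temperature. After a 10 s baseline, compound was added and calcium influx was read kinetically for 3 min (ex 480/em 520 nm).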
Sfp inh: Sfp phosphopantetheinyl transferase inhibition; Q9F4F7; Biochemical Sfp PPTase activity, qHTS; Potency, µM, for the others: max response, negative = inhibition, hits mostly inhibitors; hit rate 3.5% among 310,000; active = well fitted inhibition curve with a large enough effect; inconclusive = small, poorly fitted or top-dose-only effect, or another doubt; inactive = no such curve, though single readings can be large or run the other way;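 also: the enzyme is Sfp with the accession as filed and its product quenches rhodamine fluorescence; potency is read from the fitted curve at half-maximal effect; 0% = enzyme reaction without inhibitor and -100% = no enzyme wells; top concentration of the series not given in the record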
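With Hepes-Na pH 7.6 buffer containing 10 mM MgCl2, Sfp (15 nM) modified BHQ-2-YbbR (12.5 uM) using rhodamine-CoA (5 uM). Two reads 30 minutes apart at 525/598 nm yielded each well's rate.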
ClpP mod: qHTS Assay for Activators of ClpP. purified B. subtilis ClpP, FRET peptide cleavage, 20 min. hit rate 1.9% among 340,000. Potency, µM (highest dose often 57.5 µM), without a hit: at the highest dose activity change, negative = active. ATP-dependent Clp protease proteolytic subunit (Bacillus subtilis (strain 168)), P80244. AID 651965, 2013; active = well fitted falling curve with a large enough effect; inconclusive = small, poorly fitted or top-dose-only effect; inactive = no such curve, though single readings can be large or run the other way; also: potency is read from the fitted curve at half-maximal effect; the source files actives as falling curves though it sought activators and does not explain the sign; nearly all actives have a fitted effect of over 65% in size; many hits overshoot -100%
Target sequence (P80244 whole entry, looked up): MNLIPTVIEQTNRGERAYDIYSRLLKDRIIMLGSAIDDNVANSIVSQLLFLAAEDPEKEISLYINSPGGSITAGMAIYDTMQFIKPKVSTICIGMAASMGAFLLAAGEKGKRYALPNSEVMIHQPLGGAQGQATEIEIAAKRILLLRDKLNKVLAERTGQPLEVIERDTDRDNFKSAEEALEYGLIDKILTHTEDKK
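ClpP 10 microg/mL final, pH 8 Tris/KCl buffer with BSA, glycerol, Tween-20; compound pinned in; FRET-FV substrate; RT 20 min; Ex320/Em430; ΔFRET vs ADEP 5.8 microM, DMSO, no enzyme.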
* marks the source's active call; other numbers are inactive results; ? = inconclusive; · = not tested or not shown; & = joins results of further samples; [ ] = another dose, or the depositor's remark.

Order of values: PINK1 modulator	ClpP mod	TRPML1 agonist	TRPV1 PAM	Sfp inh	Menin MLL FP FL	TRPML1 blocker
COc1ccc(OC)c(C(O)C(C)N)c1 (stereo not drawn)
    2.4%	0.2%	-0.3	2	14%&21%	?	-2
O=C(CN1CCOCC1)c1cccc2ccccc12
    0.1%	-6.2%	1.7	3	40µM*	-2.9	-11
O=C(CNS(=O)(=O)c1ccc(Br)s1)N1CCC2(CC1)OCCO2
    3.2%	-2.3%	-0.9	-1	7%	-1.3	32
OC(C#CCN1CCOCC1)(c1ccccc1)C1CCCC1 (stereo not drawn)
    2.5%	-22%	0.7	2	11%	4.4	-11
O=C(c1cn(Cc2ccccc2)c2ccccc12)N1CCCCC1
    0.1%	1.0%	1.0	-16	-5%	-0.6	11
CC(C)c1ccc(C2NCc3ccccc3-n3cccc32)cc1 (stereo not drawn)
    15%	-2.2%	7.6	-11	-9%	-0.2	6
Cc1cccc(NC(=O)C(C)N2CC=C(c3ccccc3)CC2)c1 (stereo not drawn)
    0.2%	·	0.6	-9	3%	0.4	-8
CCCCn1c(=O)c(C(=O)Nc2ccccc2N)c(O)c2ccccc21
    7.1%	-8.4%	·	-4	-6%	-0.5	·
CC1CC=CCC12C(=O)NC(=S)NC2=O (stereo not drawn)
    0.1%	-0.8%	0.5	·	·	·	-12
C=C(CC1CC(O)[C@]2(C)OC3CC4OC5C[C@]6(C)O[C@]7(C)CCC8OC9C[C@]%10(C)OC%11C(C)=CC(=O)OC%11CC%10OC9C[C@@H](C)C8OC7CC6O[C@]5(C)C/C=C\C4OC3CC2O1)C(=O)O (stereo partly drawn)
    -1.2%	-0.5%	0.6	?	-2%	-4.5	6
O=c1[nH]c(=O)n(C2CCCCC2)c(O)c1C1NCCc2ccccc21 (stereo not drawn)
    -0.4%	-0.3%	0.8	2	35µM*	4.6	-23
c1cc(OCCN2CC2)ccn1
    -0.3%	1.0%	0.0	·	·	·	-20
CCOc1ccccc1-n1c(O)c(C=NCCCn2ccnc2)c(=O)[nH]c1=O
    2.7%	1.1%	-0.6	4	13%	3.9	5
CN(C)[C@@H]1C(=O)C(C(N)=O)=C(O)[C@@]2(O)C(=O)C3=C(O)c4c(O)cccc4[C@@](C)(O)[C@H]3[C@H](O)[C@@H]12
    2.7%&-0.2%	-6.3%&-19%	1.9&11	-2&5&0	45µM*	?	21&-11
COc1cc(C)cc2oc(=O)c(CC(=O)N3C[C@H]4C[C@@H](C3)c3cccc(=O)n3C4)c(C)c12
    1.0%	4.8%	·	-17	22%	1.2	·

Other entries follow.
Order of values: PINK1 modulator	ClpP mod	TRPML1 agonist	TRPV1 PAM	Sfp inh	Menin MLL FP FL	TRPML1 blocker
O=c1[nH]c(=O)n(Cc2ccc(F)cc2)c(O)c1C=NCCCO
    0.3%[38.3 µM]	-2.3%	-0.2	8	11%	1.0	2
O=P(Oc1ccccc1)(Oc1ccccc1)C(O)c1ccccc1 (stereo not drawn)
    1.2%	1.8%	-0.6	-16	·	·	18
O=C1NC(=O)N(c2ccc3c(c2)OCO3)C(=O)/C1=C\c1ccsc1
    3.9%	-0.7%	1.2	-13	35µM*	?	-3
C=C(c1ccccc1)P(=O)(O)O
    -1.4%	0.6%	-0.4	10	16%	2.6	1
COc1ccc(-c2c3c(=O)n(C)c(=O)n(C)c3c3n2-c2ccccc2NC3c2ccccc2OC)cc1 (stereo not drawn)
    5.1%	?	0.7	·	·	·	40
C=CCn1c(O)c(/C=N/NC(=O)CCCC)c(=O)[nH]c1=S
    1.9%	·	-1.3	-6	2%	4.4	60
CCC(=O)N1c2ccc(S(=O)(=O)CCC(=O)N3CCC4(CC3)OCCO4)cc2CC1C (stereo not drawn)
    0.1%	-3.3%	1.8	6	11%	0.6	-16
S=P(Nn1cnnc1)(c1ccccc1)c1ccccc1
    -0.6%	0.0%	0.6	-7	2%	-4.4	33
O=c1[nH]c(=S)n(-c2ccccc2)c(O)c1C=NCc1ccccn1
    0.3%	·	1.3	-1	6%	5.3	8
CCN1CCN(c2cc(N3CCCC3)c([N+](=O)[O-])cc2F)CC1
    5.6%	-4.3%	0.2	-12	-6%	0.0	-5
CCN1C(=O)NC(=O)/C(=C\c2cn(CC(=O)N3CCCCC3C)c3ccccc23)C1=O (stereo not drawn)
    1.7%	-0.5%	0.2	-12	12%	?	3
Cc1ccc(C2=NCC(=O)Nc3ccc(Br)cc32)cc1
    4.0%	-1.0%	-0.5	15	3%	0.6	34
O=P(C(c1c[nH]c2ccccc12)N1CCOCC1)(N1CCOCC1)N1CCOCC1 (stereo not drawn)
    -0.5%	-0.9%	1.1	23	10%	5.5	38
O=[N+]([O-])c1ccc(N2CCNCC2)cc1NCc1ccco1
    2.8%	0.6%	0.9	24	-12%	2.4	-1
COc1cc(OC)cc(C(=O)Nc2ccc(Cl)cc2C(=O)c2ccccc2Cl)c1
    5.3%	-3.4%	0.3	·	·	·	-7

Overlap with the part before: two compounds; new compounds follow.
Order of values: PINK1 modulator	ClpP mod	TRPML1 agonist	TRPV1 PAM	Sfp inh	Menin MLL FP FL	TRPML1 blocker
O=[N+]([O-])c1ccc(N2CCNCC2)cc1NCc1ccco1
    2.8%	0.6%	0.9	24	-12%	2.4	-1
COc1cc(OC)cc(C(=O)Nc2ccc(Cl)cc2C(=O)c2ccccc2Cl)c1
    5.3%	-3.4%	0.3	·	·	·	-7
OCC(Cl)CCl (stereo not drawn)
    1.5%	-1.9%	0.3	-4	·	·	-11
C=Cn1ccnc1P(=S)(c1nccn1C=C)c1nccn1C=C
    0.1%	2.6%	-0.2	-3	-18%	1.6	16
CCCCn1c(=O)c(C(=O)Nc2cccc(C)c2)c(O)c2ccccc21
    ?	-1.5%	·	6	7%	-2.9	·
COC(=O)C1=C(c2ccc(C(C)=O)cc2)C[C@@H]2CC[C@H]1N2C(=O)N1CCC(O)CC1
    -0.5%	0.7%	-0.3	8	·	·	-3
CC(=NCc1ccco1)c1c(O)n(Cc2ccccc2)c(=O)[nH]c1=O
    -1.3%	1.0%	-1.2	0	-21%	19	14
CC(C(=O)O)c1ccc(-c2ccccc2)c(F)c1 (stereo not drawn)
    0.2%&1.1%	-0.7%&0.2%	-0.7&0.0	-1&3	21%&19%&27%	-3.7&1.4&0.2	-2&-5
CCN(CC)c1ccc(N=Cc2c(O)n(Cc3ccco3)c(=O)[nH]c2=O)cc1
    23%	·	1.7	-3	-10%	?	26
O=C1NC(=O)C(CCc2ccccn2)(Cc2cccc(Cl)c2Cl)C(=O)N1c1ccc(Br)cc1 (stereo not drawn)
    6.4%	-2.9%	2.4	-4	5%	2.2	32
O=C(O)CN1C(=O)CN=C(c2ccccn2)c2cc(Cl)ccc21
    4.3%	0.1%	0.7	-4	50µM*	·	-7
N#Cc1ccc(C(=O)N2Cc3cnnn3-c3ccccc3C2C#N)cc1 (stereo not drawn)
    -1.3%	0.5%	1.0	·	·	·	-13
COC(=O)C1=C(c2ccc(S(C)(=O)=O)cc2)C[C@@H]2CC[C@H]1N2C(=O)NCCS(C)=O (stereo partly drawn)
    -1.2%	1.5%	-1.0	·	·	·	2
O=c1[nH]c(=S)n(-c2ccc(Cl)cc2)c(O)c1C=Nc1ccc(N2CCOCC2)cc1
    -0.5%	-0.7%	12	3	2%	?	-2
Oc1ccc2c3c1OC1C(O)CC[C@@]4(O)[C@@H](C2)N(CC2CCC2)CC[C@]314 (stereo partly drawn)
    ·	·	·	10	5%	-3.6	·
COc1ccc2cc1Oc1ccc(cc1)C[C@H]1c3cc(c(OC)cc3CCN1C)Oc1c(OC)c(OC)cc3c1[C@@H](C2)N(C)CC3
    7.3%	-3.2%	-0.3	-8	-2%	-3.9[24.8 µM]	4
C=C1C(=O)O[C@H]2[C@H]1[C@H](OC(=O)CC(=O)O[C@@H]1C[C@@H](C)[C@@H]3C=CC(=O)[C@@]3(C)[C@H]3OC(=O)C(=C)[C@H]13)C[C@@H](C)[C@H]1C=CC(=O)[C@]12C
    28%	0.0%	-0.5	-9	-21%	0.4	10

Later entries.
Order of values: PINK1 modulator	ClpP mod	TRPML1 agonist	TRPV1 PAM	Sfp inh	Menin MLL FP FL	TRPML1 blocker
CN1C(=O)C2C[C@@]3(Br)c4ccccc4N(OOSc4ccccc4)[C@H]3N2C(=O)[C@@H]1Cc1ccccc1 (stereo partly drawn)
    1.4%	-2.7%	0.2	·	·	·	2
CCOc1ccc(NC2=NCCCS2)cc1
    1.5%	·	3.8	-1	4%	2.3	2
O=[N+]([O-])c1ccc(Cl)c(Cl)c1Cl
    -0.1%	-0.9%	1.3	0	·	·	8
C[C@@H]1O[C@@H](O[C@@H]2C=C3CC[C@@H]4[C@@H](CC[C@]5(C)[C@H](c6ccc(=O)oc6)CC[C@@]45O)[C@@]3(C)CC2)[C@H](O)[C@H](O)[C@H]1O
    -1.2%	0.0%	0.0	·	·	·	·
C=C(COC(C)=O)CC1CC(O)[C@]2(C)OC3CC4OC5C[C@]6(C)O[C@]7(C)CCC8OC9C[C@]%10(C)OC%11C(C)=CC(=O)OC%11CC%10OC9C[C@@H](C)C8OC7CC6O[C@]5(C)C/C=C\C4OC3CC2O1 (stereo partly drawn)
    ?	2.0%	19	-27	8%	-1.2	-19
O=C(NC12CC3CC(CC(C3)C1)C2)OC1CN2CCC1CC2 (stereo not drawn)
    -1.3%	·	0.3	-5	10%	-1.3	-16
Cc1ccc(O)c(CN2CCC3CCC(C3)C2)c1 (stereo not drawn)
    6.8%	-0.6%	-0.4	·	·	·	6
CCCCn1c(O)c(C(=O)/C=C/c2c[nH]c3ccccc23)c(=O)[nH]c1=O
    -1.5%	·	9.9	25	2%	-0.3	-12
CC1CC(Cl)CCC1C(=O)OC(C)(C)C (stereo not drawn)
    1.1%	·	·	·	11%	-2.2	·
CCOC(=O)C1(CCOc2ccccc2)CCN(Cc2ccccc2OC)CC1
    ?	0.9%	0.5	2	4%	-1.2	58
Cc1c(C(=O)O)cc(-c2ccccc2)n1Cc1ccccc1
    -0.4%	0.4%	-1.6	21	10%	-1.4	13
CCC12CN3CCN(CC(C3)/C1=N\O)C2
    -1.6%	-12%	-0.6	-3	17%	-2.8	20
Oc1c(Br)cc(Br)cc1Br
    1.6%	0.8%	-0.6	10	2%	5.8	5

This is a subset (hit frequency here may not be typical).
